Ba CapD inh – Bacillus anthracis CapD inhibitors, primary screen, biochemical, fluorescence intensity | purified CapD enzyme, fluorescence intensity read-out; hits give low values; some hits fall short of the stated cut | z-score (concentration not given with the values) | 0.23% of 140,000 active | AID 492967, 2010;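 active = z-score under -4 in either of two replicates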;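 also: stock transfer was 100 nL into about 40 µL; score is relative to mean and spread of the plate; one replicate is shown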
AID504770 – growth inhibition of E. coli YBA685, primary screen, V. cholerae RctB inhibitors. 0.27% of 130,000 active. E. coli YBA685 rctB-dependent plasmid, OD600 growth, 3 h; hits give low values. z-score (concentration not given with the values);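 active = z-score under -2 on both plates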;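 also: wells of about 30 µL received 100 nL stock; score is relative to mean and SD of the test wells; the first replicate is given; strong numbers were not always called active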
An asterisk follows results filed as active; · = not tested or not shown.

SMILES | Ba CapD inh | AID504770
Cc1cccc(-n2ncc3c(N4CC5CC(C4)c4cccc(=O)n4C5)ncnc32)c1 (centres undefined) | -0.42 | ·
Cc1scc(CN(C)Cc2ccccc2)c1C | 0.5 | 0.7
CCOC(=O)C1=C(C)N=c2s/c(=C\c3cc([N+](=O)[O-])ccc3N3CCOCC3)c(=O)n2C1c1ccccc1 (centres undefined) | 0.21 | ·
O=C(O)c1cccc(N2C(=O)c3cccnc3C2=O)c1 | · | 0.45
COC(=O)Nc1ccc(S(=O)(=O)N2CCCC(C(=O)N3CCC(C)CC3)C2)cc1 (centres undefined) | -0.17 | ·
COc1ccc(OC)c(N(C)S(=O)(=O)c2cc(Br)cnc2N)c1 | 0.42 | 1.1
O=C(c1ccc(Cn2c(=S)[nH]c3ccc(Br)cc3c2=O)cc1)N1CCC(N2CCCCC2)CC1 | -0.94 | ·
CSC(=S)NCc1cccs1 | -0.11 | -1.3
O=C(NC(Cc1c[nH]c2ccccc12)C(=O)O)c1ccc(Cl)cc1 (centres undefined) | -0.13 | 0.6
O=C(O)Cn1nc2ccccc2n1 | -0.17 | 1.4
Cc1cc(C)c(N=C2SCC(=O)N2Cc2ccco2)c(C)c1 | -0.41 | -0.7
Cc1ccc(Cn2nnc3c(C)nn4c(-c5cccnc5)nnc4c32)cc1 | 0.12 | 0.95
CCOC(=O)C1=C(C)OC(N)=C(C#N)C1c1c(C)c([N+](=O)[O-])c(C)c([N+](=O)[O-])c1C (centres undefined) | -0.16 | ·
CC1CC(=O)C2=C(C1)OC(N)=C(C#N)C21C(=O)Nc2ccccc21 (centres undefined) | 0.22 | -0.95
C/C(=N\O)C(C)(C)NCCc1c[nH]c2ccccc12 | -0.54 | 0.35
CNC(=O)C12CC3CC(C)(CC(C)(C3)C1)C2 | -0.47 | -0.8
CC(C)(C)c1cc(CN(CCO)Cc2cc(C(C)(C)C)c(O)c(C(C)(C)C)c2)cc(C(C)(C)C)c1O | -0.43 | ·
COc1ccccc1C1CCN(S(=O)(=O)c2ccc(Cl)cc2)CC1 | 0.8 | ·
O=C(NC(C(F)(F)F)C(F)(F)F)OCc1ccc(F)cc1 | 0.33 | -1.2
Cc1ccc2sc(-c3nc4ccccc4s3)nc2c1 | -1 | -0.3
COc1ccc(-n2cc(-c3ccccc3)c3c(=O)[nH]cnc32)cc1 | 0.93 | 0.6
CCC(=O)Nc1cc(C(F)(F)F)ccc1N1CCCC1 | · | -0.75
Cc1ccc(S(=O)(=O)c2nc(Cc3ccccc3)oc2NCc2ccccc2)cc1 | -0.74 | ·
Cc1nn(-c2ccccc2)c(C)c1SCC(=O)O | · | -3.2
CN=S(=O)(Nc1ccccc1)c1ccc(C)cc1 (centres undefined) | -0.11 | -0.55
CCOC(=O)c1c(C)c(-c2ccccc2)n(CC(=O)N2CCN(c3ccccn3)CC2)c1C | 0.84 | -1.2
CCCCCCCCCCCCCCCCCNN=C1CSc2sc(=S)sc2SC1 | -0.035 | ·
CN(C)/C=C/C=c1/c(=O)c2cccc3cccc1c32 | -1.2 | ·
O=C1COc2ccc(-n3cccc3)cc2N1 | 1.8 | 0.2
O=C(c1ccccc1)N1C(O)CCC12CSCC2=O (centres undefined) | -0.24 | ·
O=C(Nc1ccccc1F)N1CCCC1c1cccnc1 (centres undefined) | 0.48 | -0.25
COc1ccc(C(=O)Nc2nc(-c3ccc(C#N)cc3)cs2)c(OC)c1 | · | 1.8
Cc1cccc(OC(=O)Cc2ccc(F)cc2)c1 | -0.03 | -0.8
CCOc1ncnc2c1sc1nc(C)cc(C)c12 | -0.95 | 1.7
CCc1ccc2[nH]c(C(=O)Nc3ccccc3C(C)CC)cc2c1 (centres undefined) | 1.1 | 0.55
CCCCn1c(=N)n(CC(O)COc2ccc(OC)cc2)c2ccccc21 (centres undefined) | -1 | -0.5

16 successive compounds out of the list so far, for reference:
SMILES | Ba CapD inh | AID504770
COc1ccccc1C1CCN(S(=O)(=O)c2ccc(Cl)cc2)CC1 | 0.8 | ·
O=C(NC(C(F)(F)F)C(F)(F)F)OCc1ccc(F)cc1 | 0.33 | -1.2
Cc1ccc2sc(-c3nc4ccccc4s3)nc2c1 | -1 | -0.3
COc1ccc(-n2cc(-c3ccccc3)c3c(=O)[nH]cnc32)cc1 | 0.93 | 0.6
CCC(=O)Nc1cc(C(F)(F)F)ccc1N1CCCC1 | · | -0.75
Cc1ccc(S(=O)(=O)c2nc(Cc3ccccc3)oc2NCc2ccccc2)cc1 | -0.74 | ·
Cc1nn(-c2ccccc2)c(C)c1SCC(=O)O | · | -3.2
CN=S(=O)(Nc1ccccc1)c1ccc(C)cc1 (centres undefined) | -0.11 | -0.55
CCOC(=O)c1c(C)c(-c2ccccc2)n(CC(=O)N2CCN(c3ccccn3)CC2)c1C | 0.84 | -1.2
CCCCCCCCCCCCCCCCCNN=C1CSc2sc(=S)sc2SC1 | -0.035 | ·
CN(C)/C=C/C=c1/c(=O)c2cccc3cccc1c32 | -1.2 | ·
O=C1COc2ccc(-n3cccc3)cc2N1 | 1.8 | 0.2
O=C(c1ccccc1)N1C(O)CCC12CSCC2=O (centres undefined) | -0.24 | ·
O=C(Nc1ccccc1F)N1CCCC1c1cccnc1 (centres undefined) | 0.48 | -0.25
COc1ccc(C(=O)Nc2nc(-c3ccc(C#N)cc3)cs2)c(OC)c1 | · | 1.8
Cc1cccc(OC(=O)Cc2ccc(F)cc2)c1 | -0.03 | -0.8

(next part)
SMILES | Ba CapD inh | AID504770
Cc1nonc1N(Cc1ccc(F)cc1)S(=O)(=O)c1ccccc1 | -0.28 | -0.5
N#Cc1c(N)nc2c(c1-c1cccnc1)CCCCC2 | 25 | 1
CCCc1oc2c(c(=O)c1CC)C(=O)CC(C)(C)C2 | 0.22 | -0.45
O=C(CC1CCCCC1)N1CCN(c2ccccc2)CC1 | · | 0
O=C(CCN1C(=O)c2ccccc2C1=O)N1CCN(c2cccc(Cl)c2)CC1 | -0.99 | -0.25
Cc1cc(/C=C(/C#N)C(=O)NCc2ccccc2)c(C)n1-c1cccnc1 | · | -0.1
O=C(O)C1C2C=CC(C2)C1C(=O)N(Cc1ccccc1)Cc1ccccc1 (centres undefined) | · | 1.9
CC1(C)CC(O)c2ccccc2O1 (centres undefined) | 0.75 | 0.2
CCOC(=O)c1sc2nc3n(c(=O)c2c1C)CCCC3 | 0.43 | ·
O=C1C(c2ccccc2)=C(c2cccc3ccccc23)c2ccccc21 | 0.52 | ·
CC(C(=O)c1ccc(Cl)cc1)n1nc(-c2ccco2)ccc1=O (centres undefined) | · | 1.4
N#Cc1c(NC(=O)CSc2nc3ccccc3o2)sc2c1CCCC2 | -0.06 | ·
COc1ccc(C(=O)N/N=C/c2ccc(C(C)(C)C)cc2)cc1OC | -0.19 | ·
Cc1ccc(C2C3=C(Nc4ncnn42)c2cc(Cl)ccc2OC3c2cccs2)cc1 (centres undefined) | -0.35 | ·
Cc1c(NS(=O)(=O)c2ccc(NC(=O)CCC(=O)O)cc2)c(=O)n(-c2ccccc2)n1C | -0.7 | ·
O=C(COc1c(CO)cc(Br)cc1CO)NC1CCCc2ccccc21 (centres undefined) | · | 0.1
Cc1ccc2nc(NCC(c3c(F)cccc3Cl)N(C)C)cc(=O)n2c1 (centres undefined) | · | 0.1
CC1(C)Cc2cccc(OCC(=O)NNC(=O)OCC#Cc3ccccc3)c2O1 | 0.33 | ·
Cc1nc(N2CC(C)OC(C)C2)c2nnn(Cc3c(F)cccc3Cl)c2n1 (centres undefined) | · | -0.05
CC1CC(C)CN(C(=O)c2c[nH]c3ccc(S(=O)(=O)N4CCCCC4c4cccnc4)cc3c2=O)C1 (centres undefined) | 5.7 | ·
COc1ccc(C2(CNC(=O)c3ccc(NC(=O)c4ccco4)cc3)CCOCC2)cc1 | -0.12 | -1.1
COc1ccc(CN(CCN2CCOCC2)C(=O)c2cc3sccc3n2Cc2ccccc2)cc1 | · | 1.5
Cc1cccc(N2CCN(C(=O)CSc3nc4ccccc4nc3N3CC(C)OC(C)C3)CC2)c1C (centres undefined) | 0.76 | 0.55
N#C/C(=N\Nc1ccc(S(N)(=O)=O)cc1)C(=O)Nc1ccc(S(N)(=O)=O)cc1 | · | -0.6
CCOc1ccc(NC(=O)c2sc3nc(N)c(C#N)c(-c4ccc(OC)c(OC)c4)c3c2N)cc1 | 0.01 | ·
O=C1c2cc[nH]c2CCC1N1CCN(c2cccc(C(F)(F)F)c2)CC1 (centres undefined) | -0.73 | ·
Cc1ccc(Oc2ccc3nnc(-c4ccccc4)n3n2)cc1C | -0.41 | 1.5
O=C(Cn1cccc1C(=O)c1ccccc1)NCc1ccco1 | -0.45 | -0.5
CSc1cc(-c2ccc(Cl)cc2)[nH]n1 | -0.02 | ·
CC1=NN(c2ccccc2)C(c2ccccc2)C1 (centres undefined) | · | 2
CCCN1C(=O)/C(=c2\sc3n(c2=O)C(c2ccc(OC)cc2)C(C(=O)OCC)=C(C)N=3)c2ccccc21 (centres undefined) | 0.06 | ·
CCc1nnc2c(N3CCCc4ccccc43)nc3ccccc3n12 | -1.4 | -0.1
FC1(F)C2C3CC4C5C3C1C5C(F)(F)C42 (centres undefined) | · | 1.4
Cc1cc(NC(=S)NC(=O)c2cn(-c3ccccc3)nc2-c2cccc(Br)c2)no1 | · | 1
COc1ccc(NC(=O)CN(c2ccc(OC)c(OC)c2)S(=O)(=O)c2ccc(C)cc2)cc1OC | -0.54 | ·
Cc1ccc(NC(=O)C2CCCN2S(=O)(=O)c2ccc(Cl)cc2)cc1 (centres undefined) | -0.67 | -0.8
Cc1ccc(C(=O)Nc2ccc(Br)cc2C)cc1I | 4.4 | 0.1
CCN(c1ccc(OC)cc1)S(=O)(=O)c1ccc2c(c1)CCCC(=O)N2 | 0.01 | -0.35
CCc1nc2cccnc2n1-c1ccc(CC(=O)N2CCC3(CC2)OCCO3)cc1 | 0.07 | 0.25
NC(=O)CCn1c(=O)sc2ccccc21 | 0.085 | -0.15
Cc1ccc(C(=O)NC(=S)Nc2ccc(-c3ccc(CO)o3)cc2)cc1 | -0.83 | -0.7
CCOC(=O)CSc1nc(NCc2ccccc2)c2ccccc2n1 | 0.6 | ·
Cc1ccc(S(=O)(=O)N2CCC(C(=O)c3ccc(F)cc3)CC2)cc1Cl | -0.93 | ·
O=S(=O)(c1cccc2ccccc12)N1CCCCC1 | · | 1.2
O=C1CCC(=O)N1c1ccc(S(=O)(=O)NCc2csc3ccc(Cl)cc23)cc1 | 0.3 | -0.15
CCN(CC)c1nc(-c2ccccc2)nc(-c2ccc(OC)cc2)c1C#N | -0.45 | ·
CCOCCOC(=O)C1=C(C)NC2=C(C(=O)CC(c3ccc(OC)cc3)C2)C1c1cccc([N+](=O)[O-])c1 (centres undefined) | -1.3 | ·
Cn1nnnc1SC1CCOC1=O (centres undefined) | · | 1.5
C#CCOc1ccc2c(c1)c(C(=O)OCC)c(C)n2-c1ccc(N(CC)CC)cc1 | 0.74 | ·
O=C(OCCSc1ncc2ccccn12)N1CCN(C(c2ccccc2)c2ccc(Cl)cc2)CC1 (centres undefined) | 19 | ·
O=c1[nH]c2cc(Cl)c(Cl)cc2n1-c1ccncc1 | 0.035 | -0.05
COc1ccc(C(=O)CC2(O)C(=O)N(CC(N)=O)c3ccccc32)c(OC)c1 (centres undefined) | 0.07 | 0.6
COC(=O)c1cc2ccsc2n1CC(=O)N1CCCc2ccccc21 | 0.4 | -0.2
COc1ccccc1-c1nc2ccccc2c(=O)o1 | 0.15 | 0.35
CC(C)NC(=O)Oc1noc2ccc(Cl)cc12 | -0.38 | 0.85
Cc1cc2oc(=O)cc(COC(=O)CCC3NC(=O)NC3=O)c2cc1C(C)C (centres undefined) | · | -0.1
Cc1ccc(S(=O)(=O)N2CCC(NC(=O)Cc3ccccc3)CC2)cc1 | 0.14 | ·
Cc1oc(S(=O)(=O)N2CCCCC2)cc1C(=O)Nc1ccccc1 | -0.095 | -1
O=C(CCCCCNC(=O)OCc1ccccc1)NNC(=O)c1sccc1NC(=O)c1ccccc1Cl | 0.29 | ·
CCc1ccc(C2=CC(c3sccc3C)n3ncnc3N2)cc1 (centres undefined) | 2.9 | ·

Remaining list, next part:
SMILES | Ba CapD inh | AID504770
Cc1nn(C)c(C)c1Sc1ccccc1N | 0.54 | 0.15
Cc1cc(C(=O)Cn2cnc3sc4c(c3c2=O)CCC(C)C4)c(C)n1Cc1ccco1 (centres undefined) | · | 0.1
CCOc1cc(C(=O)Nc2ccc(N3CCCC3=O)cc2)cc(OCC)c1OCC | · | -0.55
COC(=O)c1c(C(C)(C)C)oc2c1cc(NS(=O)(=O)c1ccc(F)cc1)c1ccccc12 | 0.98 | ·
O=C(Nc1nc2c(Cl)cccc2s1)c1c(F)cccc1F | -0.23 | 0.85
O=C(NCC1COc2ccccc2O1)c1ccc2c(c1)OCCO2 (centres undefined) | · | 0.2
COc1ccc(-c2[nH]nc3c2C(c2ccc(OC(=O)N4CCOCC4)cc2)C(C#N)=C(N)O3)cc1OC (centres undefined) | 0.28 | ·
CCc1ccc(NC(=O)CSc2c3c(nc4ccccc24)CCCC3)cc1 | 35 | -0.25
CC(OC(=O)c1cc2sccc2n1C)C(=O)NC1CCCC1 (centres undefined) | · | 0.8
O=C1CCC(=O)N1CNc1ccccc1 | · | -0.4
Cc1ccc(-c2csc3nc(CCl)[nH]c(=O)c23)cc1 | 0.11 | 1.8
COc1ccc(/C=C(\NC(=O)c2ccc(Br)cc2)C(=O)NCc2ccco2)cc1 | -0.4 | ·
CC1=C(C(=O)Nc2ccc(CC(=O)N3CCN(c4ccccc4F)CC3)cc2)SCCO1 | -0.29 | -0.35
Cc1cccc(OCC(N)=O)c1 | · | -2.6
CC1CN(c2ccc(NC(=O)c3ccco3)cc2C(=O)O)CC(C)O1 (centres undefined) | -0.65 | 0.05
Cc1ccc2c(c1)CCCN2C(=O)c1ccoc1C | -1.2 | 0.25

Source: PubChem
